# FGF22 binding – binders of recombinant human FGF22 by thermal shift; SYPRO orange fluorescence; percent of sucrose octasulfate shift, DMSO zero; calls only at 9.99 µM; 340,000 compounds, 1.5% hits;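 active = melting point raised past a set limit in the mean and every replicate; inconclusive = no clear call; three in four hits are not shown here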
# Target sequence (Q9HCT0 whole entry, looked up): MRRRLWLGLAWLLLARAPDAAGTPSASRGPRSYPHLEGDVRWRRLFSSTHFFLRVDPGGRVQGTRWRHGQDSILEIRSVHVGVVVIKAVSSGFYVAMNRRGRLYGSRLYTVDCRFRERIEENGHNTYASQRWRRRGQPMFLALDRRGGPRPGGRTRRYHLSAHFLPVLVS
# Vif A3G – inhibitors of Vif binding to APOBEC3G peptide, primary screen, biochemical, TR-FRET, GST-Vif 1-94, biotin-A3G peptide, dose response retest (AID 1117319). TR-FRET GST-Vif / biotin-A3G peptide binding; higher % means a stronger effect; test concentration not given here; strong numbers were not always called active. inhibition, %; hits with a dose series show IC50 in µM. 260,000 compounds, 0.57% hits;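 active = above the screen mean plus three standard deviations and confirmed in dose response; inconclusive = results disagree or hit not tested in dose response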;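 also: Vif residues 1-94 fused to GST binding biotinylated APOBEC3G peptide 110-148; 0% = full assay without inhibitor and 100% = GST in place of GST-Vif; retest series ran down from 100 µM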
# HNF4A DNA FP – change in binding of human HNF4 alpha to DNA. HNF4a-FITC DNA binding, fluorescence polarization, 1 h. activity change, % at 10 µM. 360,000 compounds, 0.3% hits; in the data active = activity change above about 30%, passing the limit was not always enough;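 also: controls were the assay level and a saturating level of protein; the project sought stronger binding though the title names inhibitors; some compounds called inactive have numbers as strong as hits; positive values seem to mean higher polarization but the record does not say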
# rRNA inh HTS – inhibitors of bacterial rRNA selective over humanized ribosomes; GFP signal change (wild-type ribosome), % (test concentration not listed); 350,000 compounds, 1.6% hits; E. coli WT GFP vs humanized-ribosome RFP mutants, fluorescence, 24 h; hits give low values; DMSO median 0, no signal -100;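 active = significant combined selectivity score with lowered wild-type GFP, culture density cut under 30%, mutant RFP and density less affected; inactive = any of these conditions unmet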; also: one replicate is shown; some compounds called inactive have numbers as strong as hits
# AF4-AF9 inh – inhibitors of human MLL-AF4/AF9 interaction; P42568; AID 651704; AlphaScreen, biotin-AF4 peptide binding to FLAG-AF9; inhibition, % at 10 µM; 350,000 compounds, 0.47% hits;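 active = every replicate reaching a set inhibition limit, whatever the replicate mean, cut at about 25% in these data; inconclusive = mean inhibition reaches that limit but some replicates miss it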;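 also: 0% = plate neutral control median and 100% = total signal loss; the record names both 10 and 1 µM as test concentration; the first replicate is given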
# Target sequence (P42568 whole entry, looked up): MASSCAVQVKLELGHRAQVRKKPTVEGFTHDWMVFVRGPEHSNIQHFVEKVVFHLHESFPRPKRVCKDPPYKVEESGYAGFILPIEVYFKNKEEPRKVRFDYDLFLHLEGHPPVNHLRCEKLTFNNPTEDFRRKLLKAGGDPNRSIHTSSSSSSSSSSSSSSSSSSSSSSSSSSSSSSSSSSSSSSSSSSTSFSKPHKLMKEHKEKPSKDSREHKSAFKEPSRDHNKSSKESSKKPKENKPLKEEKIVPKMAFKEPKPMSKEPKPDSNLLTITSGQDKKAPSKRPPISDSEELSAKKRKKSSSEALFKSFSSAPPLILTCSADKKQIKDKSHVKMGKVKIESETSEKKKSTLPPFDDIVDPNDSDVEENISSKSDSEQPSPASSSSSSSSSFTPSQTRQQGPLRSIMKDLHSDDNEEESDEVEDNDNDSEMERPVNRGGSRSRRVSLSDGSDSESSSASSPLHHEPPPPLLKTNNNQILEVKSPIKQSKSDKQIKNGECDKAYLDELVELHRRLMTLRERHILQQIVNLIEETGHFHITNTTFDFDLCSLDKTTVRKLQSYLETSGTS
# E coli growth – blocks Escherichia coli growth; AID 1053175; OD600, 23 h; hits give low values; 330,000 compounds, 0.21% hits; OD600 absorbance (no concentration beside the values);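 active = OD600 absorbance below the run mean of sample wells minus 3.6 SD, in any replicate, cut at about 0.56 in these data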;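 also: stock transfer was 300 nL into about 60 µL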
# ALR inh – human ALR oxidase inhibition via reduced H2O2; P55789; purified ALR, DTT oxidation, H2O2 HRP-luminol luminescence; inhibition, % (concentration not given with the values); 290,000 compounds, 3.8% hits;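 active = mean and each replicate at 75% or more; inconclusive = only one of the two met; inactive = neither met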;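 also: stock transfer was 7.5 nL into about 7.5 µL; 0% = neutral wells and 100% = wells with inactivated enzyme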
# Target sequence (P55789 whole entry, looked up): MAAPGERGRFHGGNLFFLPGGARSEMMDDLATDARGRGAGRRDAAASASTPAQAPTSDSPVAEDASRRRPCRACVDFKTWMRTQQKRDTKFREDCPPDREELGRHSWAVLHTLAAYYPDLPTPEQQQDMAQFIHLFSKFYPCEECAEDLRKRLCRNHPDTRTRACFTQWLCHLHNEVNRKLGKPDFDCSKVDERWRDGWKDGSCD
# rRNA inh HTS OD600 – also measured in rRNA inh HTS; calls as there; OD600 change, %; measured here: OD600 growth;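 optical density of the mix in the first replicate; 0 = DMSO median and -100 = no signal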
# rRNA inh HTS RFP – second read-out of rRNA inh HTS, no call of its own (marks repeat the call); RFP signal change, %; measured here: RFP humanized mutant strains;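 first replicate; 0 = DMSO median and -100 = no signal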
# Active calls of the source: *; i = inactive; ? = inconclusive; . = no result given; + = active, no number; & = joins results of further samples. Not all compounds are listed. The share of hits here may be higher or lower than overall.
SMILES,FGF22 binding,Vif A3G,HNF4A DNA FP,rRNA inh HTS,rRNA inh HTS OD600,rRNA inh HTS RFP,AF4-AF9 inh,E coli growth,ALR inh
Cc1cccc(CSc2nc3ccncc3n2CC(=O)Nc2cc(C)cc(C)c2)c1,i,-43.8%,2.6,0.2,1.1,3.6,-8.4,0.659,.
C#CCCOC(=O)N1C2=NC(C(=O)OC)=C(C(=O)OC)[C@@H]3N(C)c4ccccc4[C@]23C[C@H]1CO,i,.,0.9,5.3,0.9,1.8,3.9,.,-2.7
CCOC(=O)C1=C(COC(=O)Cc2c(F)cccc2Cl)NC(=O)NC1C (centres undefined),i,-11.6%,-2.2,-8.4,-21.0,-2.5,1.1,0.643,-9.9
O=C(CC1S/C(=N/N=C/c2ccco2)NC1=O)Nc1cccc(Cl)c1Cl (centres undefined),i,-2.1%,3.3,3.5,4.3,3.2,-18.3,.,-4.3
C[C@@H]1CN([C@H](C)CO)C(=O)c2c(c3ccccc3n2C)-c2ccccc2CO[C@@H]1CN(C)Cc1ccncc1,i,.,.,-17.4,-37.5,11.4,2.0,.,.
CO[C@H]1CN(C)C(=O)c2cc(NC(=O)C3CCOCC3)ccc2OC[C@@H](C)N(C)C[C@@H]1C,i,.,.,0.1,1.1,-1.1,-1.7,.,.
CC(C)CN1C(=O)c2ccc(NC(=O)c3cccs3)cc2C1=O,.,3.6%,-1.1,.,.,.,.,0.67,-10.8
CCCC1S/C(=N/N=C/c2cccs2)NC1=O (centres undefined),.,8.5%,1.2,.,.,.,.,.,-8.1
N/C(=N/O)c1cccn1Cc1ccccc1[N+](=O)[O-],i,4.0%,-1.6,10.8,0.0,2.0,-0.4,.,.
c1csc(Cc2nn3c(-c4n[nH]c5c4CCC5)nnc3s2)c1,.,25.7%,-2.9,.,.,.,.,0.651,-5.8
CC(C)NC(=O)N(C)C[C@@H]1OCCCC[C@H](C)Oc2ccc(NC(=O)Nc3ccc(C(F)(F)F)cc3)cc2C(=O)N([C@H](C)CO)C[C@@H]1C,i,.,.,-0.1,6.3,-0.8,0.9,.,.
CC(C)N(Cc1ccccc1)S(=O)(=O)c1ccc(Cl)nc1,i,0.3%,1.4,1.5,0.6,0.0,-2.3,0.655,-5.9
CCCN(C(=O)C1CCN(S(=O)(=O)c2ccc(OC)c(OC)c2)CC1)C1CCS(=O)(=O)C1 (centres undefined),.,-3.5%,2.4,8.2,5.0,0.1,-1.2,0.639,.
CC1=C(C(=O)N2CCCC(N3CCN(c4cccc(C(F)(F)F)c4)CC3)C2)OCCO1 (centres undefined),i,-1.2%,5.3,6.2,7.6,-0.6,0.7,0.691,3.5
CO[C@H]1CN(C)C(=O)c2ccc(NS(=O)(=O)c3cn(C)cn3)cc2OC[C@H](C)NC[C@@H]1C,i,.,.,2.9,3.5,-1.0,-1.9,.,.
Cc1ccc(C(=O)Nc2cccc(C(=O)NCc3ccco3)c2)cc1,.,-5.5%,-1.7,.,.,.,.,0.738,-7.4
CCCCCOc1ccc(N2C(=O)C(C)CNC2=S)cc1 (centres undefined),i,8.3%,.,5.9,5.2,-1.1,-1.5,0.704,-3.8
O=C(O)C(CCCCNS(=O)(=O)c1ccc(F)cc1)NS(=O)(=O)c1ccc(F)cc1 (centres undefined),i,6.2%,1.1&2.0,13.8&7.2,17.4&5.1,1.3&-0.7,0.1&-1.2,0.701&0.619,-2.4
CC1(C)CC(=O)C=C(c2ccc3ccccc3c2)C1,i,.,2.3,-2.7,-11.8,5.3,.,0.722,13.5
O=C(NCc1cccs1)c1cc(-c2ccccc2)nn1CC1CC(c2cccc([N+](=O)[O-])c2)=NO1 (centres undefined),i,.,-0.7,5.9,4.2,-0.6,.,0.739,-11.0
O=C(N[C@H]1CC[C@@H](CCn2cc(C3(O)CCCC3)nn2)O[C@H]1CO)C1CCC1,i,.,.,1.1,3.0,-1.3,-2.9,.,.
CCCC(=O)Nc1ccc2c(c1)OC[C@H](C)N(Cc1cccc(F)c1)C[C@H](C)[C@H](OC)CN(C)C2=O,i,.,.,-4.5,-5.0,-2.8,2.6,.,.
CCOC(=O)N1CCN(C(=O)c2ccccc2N(Cc2ccccc2)S(=O)(=O)c2ccc(OC)cc2)CC1,i,2.8%,2.6,-25.8*,-20.1*,0.9*,2.6,0.693,-4.1
O=C(CCN1CCCCC1)N[C@@H]1C=C[C@H](CC(=O)N2CCC(Cc3ccccc3)CC2)O[C@H]1CO,i,.,.,-4.9,-1.9,4.1,3.0,.,.
O=C(Cc1ccccc1)N1C[C@@H]2[C@H](c3ccccc31)[C@@H](CO)N2S(=O)(=O)c1ccccc1,i,.,.,-11.1,-6.8,3.4,-1.7,.,.
CC1(C(=O)NS(=O)(=O)c2ccccc2OC(F)(F)F)CCN1C(=O)Cc1ccccc1 (centres undefined),i,.,-5.5,14.3,13.9,0.9,-7.0,.,.
COc1cccc(NC(=O)CN(C)CC(=O)c2c(C)[nH]c3ccccc23)c1,i,.,-2.8,-8.2,-10.6,0.7,1.0,0.674,.
Cc1ccc([N+](=O)[O-])cc1N(CC(=O)N1CCCCC1)S(C)(=O)=O,i,.,0.6,9.8,7.6,-2.5,-1.6,0.659,-4.4
COc1ccccc1-c1ccc2c(c1)O[C@@H](CN(C)C)[C@H](C)CN([C@H](C)CO)S2(=O)=O,i,.,.,0.4,-9.4,0.2,-16.2,.,.
Nc1cccc(-n2nncc2-c2ccccc2)c1,.,3.0%,4.1,.,.,.,.,0.68,-1.9
Cc1cccc(N2CC(C(=O)OCC(=O)c3c(N)n(CC(C)C)c(=O)n(C)c3=O)CC2=O)c1C (centres undefined),i,3.3%,-1.0,-6.7,-7.8,-0.9,0.9,0.661,.
O=C(Nc1c2c(nn1-c1ccccc1)CS(=O)(=O)C2)c1ccc(Br)o1,i,.,-0.2,6.0,5.3,2.9,1.2,.,.
C[C@H](CO)N1C[C@H](C)[C@H](CN(C)Cc2ccc(C(F)(F)F)cc2)Oc2ccc(NC(=O)Cc3cn(C)c4ccccc34)cc2CC1=O,i,.,.,-0.1,0.1,-0.5,-2.6,.,.
Cc1ccc(S(=O)(=O)N(C)C[C@@H]2Oc3ccc(NC(=O)CCC(F)(F)F)cc3CC(=O)N([C@@H](C)CO)C[C@@H]2C)cc1,i,.,-0.8,-1.6&6.4,1.1&10.5,1.4&-11.0,-2.4&2.9,0.773,-4.0
CCOc1ccc(NC(=O)NCCCn2c(C)nc3cc(C)c(C)cc32)cc1,.,3.2%,-2.2,.,.,.,.,0.657,-0.7
COc1ccccc1C(=O)Nc1nc(-c2ccc3c(c2)OCCO3)cs1,i,-35.5%,3.8,-3.2,-4.5,1.2,-2.6,0.694,-0.9
CCC(=O)N1[C@H](CO)[C@@H](c2ccccc2)[C@H]1CN(C)C(=O)CN1CCOCC1,+,.,.,6.3,6.4,-0.5,-2.0,.,.
Cc1ccc(CNC(=O)CCNC(=O)Cn2ccc3ccccc3c2=O)cc1,.,7.3%,0.3,.,.,.,.,0.731,.
C/C=C/c1cnc2c(c1)C(=O)N([C@H](C)CO)C[C@@H](C)[C@@H](CN(C)S(=O)(=O)c1ccccc1)O2,i,.,.,1.4,-2.2,-1.3,-3.4,.,.
COC(=O)C1=C(C)N=c2s/c(=C/c3cccs3)c(=O)n2C1c1ccc(F)cc1 (centres undefined),.,4.8%,8.0,.,.,.,.,.,-2.1

# Reprinted at random: three entries already listed
SMILES,FGF22 binding,Vif A3G,HNF4A DNA FP,rRNA inh HTS,rRNA inh HTS OD600,rRNA inh HTS RFP,AF4-AF9 inh,E coli growth,ALR inh
O=C(CCN1CCCCC1)N[C@@H]1C=C[C@H](CC(=O)N2CCC(Cc3ccccc3)CC2)O[C@H]1CO,i,.,.,-4.9,-1.9,4.1,3.0,.,.
COc1ccccc1C(=O)Nc1nc(-c2ccc3c(c2)OCCO3)cs1,i,-35.5%,3.8,-3.2,-4.5,1.2,-2.6,0.694,-0.9
Nc1cccc(-n2nncc2-c2ccccc2)c1,.,3.0%,4.1,.,.,.,.,0.68,-1.9

# The listing continues:
SMILES,FGF22 binding,Vif A3G,HNF4A DNA FP,rRNA inh HTS,rRNA inh HTS OD600,rRNA inh HTS RFP,AF4-AF9 inh,E coli growth,ALR inh
Cc1ccc(N2CC(C(=O)Nc3cccc(C(=O)NC4CC4)c3)CC2=O)cc1 (centres undefined),i,.,-4.8,10.6,11.7,3.0,2.7,0.696,.
COCCn1c(SCC(=O)OC(C)C)nnc1-c1ccccc1,.,17.2%,-1.7,5.5,14.8,-0.4,.,0.642,0.6
COc1cccc2ccc(CC(O)(c3ccccc3)c3ccccc3)nc12,i,5.3%,1.1,9.4,15.1,7.1,-2.4,.,.
CCn1cc(C2=NC(C)CO2)c2ccccc21 (centres undefined),i,3.4%,1.0,-0.5,6.0,-4.5,2.9,0.645,3.6
CCOc1cc(/C=N/NC(=O)CN2CCOCC2)ccc1OCc1ccc(Cl)cc1,.,0.6%,0.7,.,.,.,.,.,-9.4
COc1ccc(S(=O)(=O)N2CCC(C(=O)Nc3ccc4c(c3)OCCO4)CC2)cc1OC,.,0.1%,4.0,.,.,.,.,0.692,-23.2
CN(Cc1ccc(C(C)(C)C)cc1)C(=O)c1ccc2c(=O)n3c(nc2c1)CCC3,i,1.7%,-1.6,-5.7,-15.3,0.8,4.0,0.681,3.4
O=C(C[C@@H]1C[C@@H]2c3cc(NC(=O)c4cccnc4)ccc3O[C@@H]2[C@H](CO)O1)NCc1ccncc1,i,.,.,4.1,5.5,-3.0,0.2,.,.
COc1ccc(S(=O)(=O)Nc2cccc3c2O[C@@H](CN(C)Cc2ccc(C(F)(F)F)cc2)[C@@H](C)CN([C@@H](C)CO)C3=O)cc1,i,.,.,-5.1,-7.0,0.0,4.1,.,.
CCc1nnc(NC(=O)CN2CCN(Cc3cccc(OC)c3)CC2)s1,i,-5.3%,-2.2,13.5,13.1,-1.6,0.8,0.645,0.1
OCC1(CCc2ccccc2)CCN(C/C=C/c2ccccc2)CC1,i,.,-0.2,1.9,0.3,4.0,-0.3,0.651,-7.4
CCOc1ccccc1N1CCN(C(=O)c2c(-c3ccccc3Cl)noc2C)CC1,.,-5.9%,3.2,.,.,.,.,0.721,.
O=C(Nc1ccc(N2CCN(C(=O)c3cccs3)CC2)cc1)c1cccnc1Cl,i,.,1.8,6.2,4.5,2.3,1.0,0.727,24.8
OCCSc1ncnc2c1oc1ccccc12,.,0.5%,-1.7,.,.,.,.,0.657,-3.4
COc1ccc(S(=O)(=O)Nc2ccc3c(c2)C(=O)N([C@@H](C)CO)C[C@H](C)[C@H](CN(C)CC2CC2)O3)cc1,i,.,1.8,3.4&9.1,-1.8&9.3,2.4&2.2,-14.6,.,-5.0
Cc1nc(CSc2nnc3scc(-c4ccccc4)n23)cs1,.,?,2.0,.,.,.,.,0.667,-18.8
COc1cc(OC)cc(C(=O)Nc2ccc(C(=O)Nc3ccccc3OC)cc2)c1,i,-5.1%,2.2,-21.6*,-6.7*,1.1*,-0.3,0.677,.
O=C(NCC(c1ccco1)N1CCCCC1)c1cccs1 (centres undefined),i,2.3%,0.9,-2.4,8.9,2.5,1.4,0.73,1.7
CCc1cccc(NC(=O)C2CCCC2)c1,.,-1.3%,-1.2,.,.,.,.,0.714,-8.3
C[C@@H]1CN([C@@H](C)CO)C(=O)c2cc(NS(=O)(=O)c3cn(C)cn3)ccc2O[C@@H]1CN(C)Cc1ccncc1,i,.,.,0.6,3.1,-1.6,-4.9,.,.
CCOc1ccc(NC(=O)Nc2cccc(C)n2)cc1,i,.,0.1,8.0,3.0,-0.5,-3.1,0.672,-4.8
